Rango release inh: prevents RanGTP from dissociating the Rango-importin beta complex; O95149+P62826; Biochemical FRET Rango-importin beta, RanGTP-induced dissociation; Potency, µM (top dose mostly 46.1 µM), for the others: at the top dose activity change, negative = inhibition; hit rate 0.071% among 340,000; AID 540253; active means falling FRET ratio curve, often poorly fitted, with flat reads before Ran was added; inconclusive means other falling curves, or compound fluorescence or quenching; inactive means flat or rising ratio curve;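 note: potency is the fitted concentration of half-maximal effect; % of control where 0% means no effect; nearly all actives have a fitted effect of over 45% in size; -100% = wells without RanGTP and RCC1; the record marks most hits as doubtful in a second field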
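Compounds preincubate 5 min with complex of recombinant Rango and importin beta in PBS with 1 mM DTT. Ran (0.6 uM) loaded with 2 mM GTP plus 0.2 uM RCC1 starts dissociation; FRET is recorded 45 min later.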
Rango-impB inh: Rango-importin beta binding inhibition; Q14974; Rango CFP/YFP FRET sensor + importin beta, 45 min; Potency, µM (doses to about 92.2 µM), for inactives: top-dose inhibition of complex formation; hit rate 0.031% among 340,000; active = rising FRET ratio curve, often small or poorly fitted; inconclusive = mostly compound fluorescence or quenching in the first reads; inactive = flat curves in all reads;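 note: potency is the fitted concentration of half-maximal effect; 0% = DMSO wells and 100% = buffer wells lacking importin beta; nearly all actives have a fitted effect of over 15% in size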
Target sequence (Q14974 whole entry, looked up): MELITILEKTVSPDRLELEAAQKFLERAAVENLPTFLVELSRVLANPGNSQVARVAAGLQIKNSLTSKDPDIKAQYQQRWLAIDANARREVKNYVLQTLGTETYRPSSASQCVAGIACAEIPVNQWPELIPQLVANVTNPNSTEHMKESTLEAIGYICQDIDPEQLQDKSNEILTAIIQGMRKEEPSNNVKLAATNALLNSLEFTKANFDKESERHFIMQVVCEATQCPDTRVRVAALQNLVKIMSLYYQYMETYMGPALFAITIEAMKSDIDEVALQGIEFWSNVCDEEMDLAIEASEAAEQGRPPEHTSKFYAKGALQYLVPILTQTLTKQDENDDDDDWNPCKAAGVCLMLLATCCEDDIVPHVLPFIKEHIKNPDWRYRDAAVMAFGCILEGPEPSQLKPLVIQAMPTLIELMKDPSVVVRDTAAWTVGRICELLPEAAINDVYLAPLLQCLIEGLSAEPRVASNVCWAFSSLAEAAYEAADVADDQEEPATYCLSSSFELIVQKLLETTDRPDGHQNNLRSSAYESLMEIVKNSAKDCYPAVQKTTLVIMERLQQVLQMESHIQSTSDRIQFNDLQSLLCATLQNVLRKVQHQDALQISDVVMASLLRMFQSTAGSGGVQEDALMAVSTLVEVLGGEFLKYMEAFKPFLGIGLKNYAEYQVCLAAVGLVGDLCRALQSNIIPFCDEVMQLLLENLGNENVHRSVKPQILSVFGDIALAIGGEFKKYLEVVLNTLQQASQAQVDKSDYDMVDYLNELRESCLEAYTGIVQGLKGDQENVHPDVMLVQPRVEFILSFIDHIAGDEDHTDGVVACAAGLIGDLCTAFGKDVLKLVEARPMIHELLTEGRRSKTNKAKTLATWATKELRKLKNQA
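FRET biosensor Rango (snurportin 1 IBB between N-terminal EYFP and C-terminal Cerulean), 50 nM in PBS/1 mM DTT/0.02% Tween-20/0.1% BSA, preincubated 5 min RT with compound; 0.125 microM importin beta added, 45 min RT, CFP/YFP FRET ratio read.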
GLA inh pH 4.5: alpha-galactosidase A (human) inhibition, pH 4.5 | purified enzyme, 4-MU-alpha-Gal fluorescence, pH 4.5 | activity change, negative = inhibition, % at 105 µM | 230,000 tested, under 10 active; inconclusive = small, poorly fitted or top-dose-only inhibition, or a rising curve; inactive = flat fitted curve, though single readings scatter; no compound was filed as active;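 note: 0% = full activity with enzyme and -100% = basal without enzyme; dose as in the result columns while the protocol names 77 µM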
miR-21 reporter: raises the signal of a miR-21 reporter; HeLa miR-21 FLuc reporter, luciferase, 48 h; Potency, µM (series often up to 38.3 µM), for the others: at the highest dose reporter change, positive = more light; 340,000 tested, under 10 active; AID 2288; active = well fitted rising curve with a large enough effect; inconclusive = small, poorly fitted or top-dose-only effect; inactive = no such curve, though single readings can be large or run the other way;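 note: % of control where 0% means no effect; miR-21 action dims this reporter so a rising signal means less miR-21 action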
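HeLa miR-21-FLuc reporter line, endogenous miR-21; 2000 cells/well in DMEM/10% FBS; compound titration up to ~40uM final, 48 h, 37 degree Celsius; luciferase detection reagent, 15 min lysis, CCD luminescence.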
An asterisk follows results filed as active; ? = inconclusive; / = not tested or not shown; [ ] = dose if it differs, or a comment. An excerpt. The share of hits here may be higher or lower than overall.

Structure	Rango release inh	Rango-impB inh	GLA inh pH 4.5	miR-21 reporter
Cc1cc(-c2ccccc2)nc(N/N=C/c2ccc(O)cc2O)n1	11%	0.1%	/	4%
COc1cccc(CN2CC(C(=O)NCc3cccc(Cl)c3)CCC2=O)c1 (stereo not given)	7%	-2.9%	/	-3%
CCn1c(-c2ccccc2Cl)nn(CC(=O)Nc2ccccc2OC)c1=S	16%	0.5%	0	-2%
COc1ccc(O)c(CN2CCN(CCCc3ccccc3)C(CCO)C2)c1 (stereo not given)	1%	0.4%	/	14%
CC(Oc1nc2c(c(=O)n(C)c(=O)n2C)n1C)C1CCCCC1 (stereo not given)	7%	-1.8%	/	/
Cc1cc(Oc2ccc(=O)n(C)n2)nc(=S)[nH]1	/	/	12	6%
Cc1cc(N2CCN(S(=O)(=O)c3ccccc3)CC2)c2ccccc2n1	2%	2.3%	-9	15%
O=C(CN1C(=O)c2ccccc2S1(=O)=O)c1ccccc1F	8%	-3.7%	/	24%
O=C(CCCOc1ccccc1)NNC(=O)c1ccncc1	5%	-2.5%	/	/
COC(=O)COc1cccc(NC(=O)c2cccs2)c1	7%	0.8%	-4	1%
COC(=O)CCC(=O)NNC(=O)c1ccc(Br)cc1	7%	-0.3%	-4	0%
CCOC(=O)C1=C(O)C(=O)N(c2ccc(S(N)(=O)=O)cc2)C1c1ccc([N+](=O)[O-])cc1 (stereo not given)	18%	1.9%	1	-1%

3 of the entries above in order of their number in Rango-impB inh, falling:
| molecule | Rango-impB inh |
| --- | --- |
| COC(=O)COc1cccc(NC(=O)c2cccs2)c1 | 0.8% |
| O=C(CCCOc1ccccc1)NNC(=O)c1ccncc1 | -2.5% |
| COc1cccc(CN2CC(C(=O)NCc3cccc(Cl)c3)CCC2=O)c1 (stereo not given) | -2.9% |

(cont.)
Structure	Rango release inh	Rango-impB inh	GLA inh pH 4.5	miR-21 reporter
O=c1cc(CSc2n[nH]c(=O)n2C2CC2)c2ccc(O)cc2o1	0%	1.4%	-1	-1%
CCN(CC)CCn1c(=S)[nH]c2ccc(Br)cc2c1=O	1%	4.6%	-3	2%
CCCCNC(=S)N(C)/N=C/c1sc(N2CCCCC2)nc1-c1cccs1	/	/	-7	-2%
Cc1cc(C(=O)NCCN2CCN(c3cccc(Cl)c3)CC2)n(-c2ccccc2)n1	-8%	1.7%	4	17%
COc1cc2c(cc1OC)-c1cc(Nc3ccccc3Br)nc(=O)n1CC2	?	?	/	-21%
S=c1[nH]nc(-c2ccco2)n1-c1ccc(Cl)cc1	11%	-0.7%	-1	-1%
COc1ccc(-c2nnc(SCc3cc(C)ccc3C)n2N)cc1	0%	-2.8%	4	-5%
C=C1[C@H](C)CN(S(=O)(=O)C(C)(C)C)[C@H]1CCO	?	0.4%	/	/
CC(=O)NC(=O)NC1OC(=O)C(Cl)=C1Cl (stereo not given)	7%	-0.8%	6	1%
CCc1ccc(C(=O)NNc2ccccc2F)cc1	0%	-0.7%	2	-16%
CCN(CC(=O)N1CCC(C(N)=O)CC1)S(=O)(=O)c1ccc(Cl)cc1	-4%	0.1%	/	3%
C=CCNC(=S)NNC(=O)c1cccn(Cc2ccc(Cl)cc2Cl)c1=O	-15%	0.7%	-4	-4%
COc1ccc(CCNC(=O)COC(=O)c2cnc(C)cn2)cc1OC	-8%	-3.2%	5	0%
Cc1cccc(NC(=O)Cn2c(O)c(N=NC(=O)c3ccccc3O)c3ccccc32)c1	10%	-0.5%	-12	-7%
COc1ccc(C(=O)N2CCN(c3ccccn3)CC2)cc1	-10%	1.9%	9	-2%
COc1cc(OC)nc(NC(=O)CSc2nnc(-c3ccccc3)n2C2CCCCC2)n1	1%	-0.7%	/	/
Cc1ccc(S(=O)(=O)NCC(=O)OCC(=O)N2CC(=O)Nc3ccccc32)cc1	7%	-1.0%	/	/
CCCCc1c(O)nc(SCC(=O)Nc2ccc3c(c2)CCC3)[nH]c1=O	11%	-0.3%	1	5%
COc1ccc(OC)c(S(=O)(=O)N(C(C)=O)c2ccc3oc(=O)sc3c2)c1	-9%	-3.9%	-4	1%
COc1ccc(SC[C@H](Cc2ccccc2)N2CC[C@@H](O)CCC2=O)cc1	13%	1.3%	/	/
Cc1nc(SCC(=O)N2CCN(c3ccccn3)CC2)c(C#N)c(C)c1C	-4%	-4.0%	/	/
O=C(CCOc1ccccc1)N1CCN(c2ccc(O)cc2)CC1	-14%	-0.2%	-3	-11%
Cc1ccc(N=CC2=C(O)CC(c3ccccc3Cl)CC2=O)cc1 (stereo not given)	13%	4.2%	10	0%
CC(=O)Oc1ccc(/C=N/NC(=O)C2CCCN2S(=O)(=O)c2ccc(Cl)cc2)cc1 (stereo not given)	1%	0.5%	-1	-5%
Cc1nc([N+](=O)[O-])c(N2CCN(Cc3ccccc3)CC2)n1Cc1ccccc1	-4%	-0.4%	-9	1%
CCCn1c(SCC(=O)NCc2ccccc2Cl)n[nH]c1=O	12%	4.4%	5	4%
CCC1CCCCN1C(=O)Cn1c(=O)n(CCCC(=O)NCc2ccco2)c(=O)c2sccc21 (stereo not given)	5%	0.5%	/	-2%
CCC(C(=O)NCc1ccc(F)cc1)N(Cc1cccs1)C(=O)c1snc(C(N)=O)c1N (stereo not given)	2%	-0.2%	/	7%
O=c1oc2ccccc2cc1N1CCOCC1	-1%	-0.8%	0	-7%
C[C@H](O)[C@@H]1C(=O)N2CCc3ccc(N4CCN(C)CC4)cc3[C@@H]2C[C@@H]1N(C)C(=O)c1ccc(C#N)cc1	11%	1.3%	/	/
O=C(O)/C=C/c1coc2ccc(F)cc2c1=O	-22%	-1.8%	-1	-17%
COc1cc(/C=N/NC(=S)NCCc2ccccc2)cc(OC)c1OC	-13%	0.6%	/	0%
C/C=C(\C)C(=O)Nc1cccc(C2=NOC3(C2)C[C@@H](C(N)=O)N(C(=O)c2cc([N+](=O)[O-])cc([N+](=O)[O-])c2C)C3)c1 (stereo not given in full)	-1%	-3.8%	2	10%
c1cncc(Nc2nc(-c3cccs3)cs2)c1	-21%	?	-3	-40%
Cc1cc(C)cc(C(=O)NC(CC(N)=O)c2ccc(N3CCN(c4ccccn4)CC3)c([N+](=O)[O-])c2)c1 (stereo not given)	0%	2.4%	/	-1%
N/C(=N\OC(=O)c1ccc(F)cc1)c1ccc(Br)cc1	4%	-3.8%	-3	-27%
O=C(COc1ccc2ccc(=O)oc2c1)N1CCN(c2ccc(F)cc2)CC1	0%	2.5%	/	7%
O=C(NCCC1=CCCCC1)c1cccc2c1C(=O)N(C1CCCCC1)C2	2%	3.8%	1	0%
O=C(/C=C/c1ccc(Cl)c([N+](=O)[O-])c1)Nc1ccc(N2CCCC2)cc1	50%	-1.5%	0	-3%
O=c1c2ccccc2oc2nc(-c3ccco3)n(CCc3ccccc3)c(=O)c12	/	/	-1	0%
CC(=O)Nc1cc2c3c(c1)CCC(=O)N3CCC2	13%	1.6%	/	4%
Cc1cc(C)nc(NC(=O)c2csnn2)c1	2%	5.2%	-3	-3%
Cc1cccc(-c2nc(NCCCN(C)C)c3ccccc3n2)c1	2%	-3.1%	/	-39%
COc1ccc(NC(=O)C2CCCN2S(=O)(=O)c2ccc3c(c2)CCC(=O)N3)c(OC)c1 (stereo not given)	21%	3.4%	4	-18%
C#CCOCCOCCOCCNc1nc(N2CCN(C(=O)CCCCCCCCCCNC(=O)Cn3cc(CCCCCN)nn3)CC2)nc(N2CCN(C(=O)CCCCCCCCCCNC(=O)[C@@H]([C@H](C)O)n3cc(C)nn3)CC2)n1	21%	2.1%	/	/
CC(=O)Nc1cccc(NC(=O)C2CCCN2C(=O)Nc2cccc(C)c2)c1 (stereo not given)	-2%	0.2%	-7	-2%
O=C(Nc1ccccc1)N1CCn2c1nc1ccccc12	12%	-3.3%	3	-13%
COc1ccccc1OCCCOc1ccc(/C=C2\SC(=O)NC2=O)cc1OC	10%	8.8%	/	0%
COc1ccc(C(=O)CSc2nnc(NC(=O)C3CC(=O)N(c4ccccc4)C3)s2)cc1 (stereo not given)	0%	1.0%	1	-3%
COc1cc2c(cc1OC)C(C)N(C(=S)Nc1ccccc1)CC2 (stereo not given)	11%	-3.3%	-3	-5%
Cc1cc(-c2ccc(S(=O)(=O)N3CCCCC3)s2)on1	23%	0.4%	/	-3%
c1ccc(Nc2ncnc3[nH]ncc23)cc1	-8%	10%	-2	-10%
COC(=O)c1ccc(NC(=O)CSc2nc3cccnc3n2C)cc1	-7%	3.9%	-3	-3%
CCc1ccc(NC(=S)Nc2cccc3cnccc23)cc1	-9%	-5.8%	-2	-13%
Cc1ccc(SCC(=O)OCC(=O)N(CCC#N)c2ccccc2)cc1C	5%	-4.2%	/	/
CCc1ccccc1NC(=O)c1ccoc1C	0%	-2.8%	8	-3%
COc1ccc(CNC(NC(=O)c2ccccc2)(C(F)(F)F)C(F)(F)F)cc1	-3%	-0.2%	-29	13%
O=C(CCc1ccc(S(=O)(=O)N2CCCCC2)cc1)c1nnc(-c2ccccc2)o1	9%	1.5%	-16	-11%
CCOc1cc(C2C3=C(CCCC3=O)NC3=C2C(=O)CCC3)cc(Cl)c1O	-9%	-1.7%	-4	-15%
O=C(CSc1ccc(-c2ccccc2)nn1)c1ccccc1	60%	-1.0%	-1	-65%

Following part:
Structure	Rango release inh	Rango-impB inh	GLA inh pH 4.5	miR-21 reporter
CC(C)c1nc(C#N)c(NN)o1	-24%	0.4%	4	-75%
Cn1c(=O)n(C)c2cc(NS(=O)(=O)c3cccs3)ccc21	-17%	?	1[21.1 µM]	-2%
COc1ccc(C2C(C(=O)NCC3CCCO3)c3cc(OC)c(OC)cc3C(=O)N2C)cc1OC (stereo not given)	8%	-2.5%	1	-3%
O=C1CCC[C@H]2c3[nH]c4ccccc4c3CCN12	1%	-3.5%	/	/
Cc1ccc(S(=O)(=O)N(C)c2cc(S(=O)(=O)N3CCOCC3)c(C)cc2C)cc1	-8%	-0.3%	/	8%
O=C(NNS(=O)(=O)c1ccccc1)c1ccccc1-n1cccc1	0%	0.1%	/	0%
O=C(OCCCc1cc2ccccc2c(=O)o1)c1ccccc1C(F)(F)F	-7%	1.2%	/	/
CCC(C)N(C(=O)CSc1nnnn1-c1ccccc1OC)C1CCS(=O)(=O)C1 (stereo not given)	2%	0.7%	/	/
CS(=O)(=O)N1CCC(C(=O)N2CCN(Cc3ccccc3)CC2)CC1	4%	5.0%	-4	-4%
O=C(C1=C[C@H](c2ccc3c(c2)OCO3)C[C@H](OCc2ccc(CO)cc2)O1)N1CCN(Cc2ccc3c(c2)OCO3)CC1	-14%	3.5%	-2	15%
CC(C(=O)O)c1ccc2c(c1)[nH]c1ccc(Cl)cc12 (stereo not given)	19%	-0.4%	0	-6%
Cc1ccc(C)c(N2CCN(C(=O)CCS(=O)(=O)c3cccc4nonc34)CC2)c1	-5%	0.8%	?	1%
COc1ccc(NC(=S)NC23CN4CN(CN(C4)C2)C3)cc1	-6%	3.7%	11	-18%
CCCCN(C)S(=O)(=O)c1c(C)[nH]c(=O)[nH]c1=O	-17%	-3.6%	-13	-4%
CCOC(=O)c1c(CN(C)C)n(C)c2ccc(OC(C)=O)cc12	-15%	-5.2%	-2	-2%
